# RecA splice inh: blocks M. tuberculosis RecA intein splicing | inhibition, %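 (about 9 µM by stock and volumes)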 | AID 2221 | P9WHJ3 | cell-free RecA intein splicing, fluorescence | 290,000 compounds, 0.75% hits; in the data active = inhibition above about 30%; inconclusive = no clear call, values can overlap the other calls;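 note: 0% = vehicle wells and 100% = reference inhibitor control wells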
# Target sequence (P9WHJ3 whole entry, looked up, canonical isoform): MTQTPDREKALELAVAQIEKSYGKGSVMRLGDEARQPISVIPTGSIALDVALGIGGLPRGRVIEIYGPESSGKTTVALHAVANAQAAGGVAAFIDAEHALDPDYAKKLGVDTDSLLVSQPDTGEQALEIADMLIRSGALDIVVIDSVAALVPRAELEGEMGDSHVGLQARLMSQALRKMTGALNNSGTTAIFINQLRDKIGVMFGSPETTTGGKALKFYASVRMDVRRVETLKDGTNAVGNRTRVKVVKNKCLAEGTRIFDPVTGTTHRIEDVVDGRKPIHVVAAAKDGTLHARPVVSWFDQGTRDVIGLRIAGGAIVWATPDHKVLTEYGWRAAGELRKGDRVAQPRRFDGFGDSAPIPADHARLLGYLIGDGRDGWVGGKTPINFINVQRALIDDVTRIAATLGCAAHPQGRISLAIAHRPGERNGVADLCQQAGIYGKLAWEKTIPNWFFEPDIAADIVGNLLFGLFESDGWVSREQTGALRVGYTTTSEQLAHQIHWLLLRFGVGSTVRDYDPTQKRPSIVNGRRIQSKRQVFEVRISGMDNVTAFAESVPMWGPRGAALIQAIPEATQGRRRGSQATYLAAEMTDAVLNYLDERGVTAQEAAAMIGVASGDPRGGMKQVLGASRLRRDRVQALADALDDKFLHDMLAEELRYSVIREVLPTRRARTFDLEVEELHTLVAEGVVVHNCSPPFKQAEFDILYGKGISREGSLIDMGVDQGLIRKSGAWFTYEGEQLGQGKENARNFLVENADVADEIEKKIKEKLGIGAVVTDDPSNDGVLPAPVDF
# Mtb bLac sens: beta-lactam sensitization of Mtb H37Rv; inhibition, % at 25 µM; AID 434955; 330,000 compounds, 0.27% hits; M. tuberculosis H37Rv growth with meropenem, percent inhibition; hits of this screen are not shown here;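 active = about 74% or more and at least 40 points above the plate without the antibiotic, then above 30% in a dose series; inconclusive = first-round hits that could not be retested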;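 note: growth measured after seven days incubation then overnight dye step; 0% = bacteria only wells and 100% = bacteria with antibiotic; twin plates without the antibiotic show which effects depend on it; some results filed as inactive read as strong as hits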
# Arbovirus inh: arbovirus infection inhibition | arbovirus infection cell-based antiviral screen | inhibition, % at 10 µM | 200,000 compounds, 0.37% hits;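 active = inhibition from about 30%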;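 note: bluetongue infection of BSR cells; cell survival read as ATP light after 72 h; 0% = infected wells without compound and 100% = uninfected wells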
# Mtb H37Rv: M. tuberculosis H37Rv growth inhibitors, H37Rv strain (AID 1626); 220,000 compounds, 0.95% hits; M. tuberculosis H37Rv growth inhibition; higher % means a stronger effect; inhibition, % at 10 µM; hits with a dose series show IC50 in µM;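 active = confirmed in a dose series; inconclusive = inhibition above 80% but not taken into the dose series; inactive = below 80% or under 30% at every dose of the series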;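 note: bacteria incubated seven days before Alamar blue readout; 0% = bacteria only wells and 100% = bacteria with antibiotic wells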
# YopH PTP inh: inhibitors of Yersinia enterocolitica YopH tyrosine phosphatase | fluorescence Ex485/Em525 | inhibition, %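 (about 10 µM by stock and volumes)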 | 140,000 compounds, 0.16% hits;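 active = inhibition of 50% or more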;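 note: controls were vehicle for no effect and minimum signal wells for full effect; inactives centre near -20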
# Arbovirus inh repeat: further read-out of Arbovirus inh, marked with its call; inhibition, %; measured here: 10K subset replicate screen; many hits read low in the repeat;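 first of two repeat runs on a subset; 0% = infected and 100% = uninfected wells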
# Numbers without * were called inactive; ? = inconclusive; / = not tested or not shown; & = joins results of further samples. These rows are one share of the data; the hit share may differ from the screen's.
SMILES,RecA splice inh,Mtb bLac sens,Arbovirus inh,Mtb H37Rv,YopH PTP inh,others
COc1cc(C2N3CC4(C)CN2CC(C)(C3)C4)ccc1O (stereo not given),0.2,-2,4,-9%,2,Arbovirus inh repeat=12
CN(C)S(=O)(=O)N1CCN(C(=O)N2CCCCCC2)CC1,-2.3,-15,1,1%,22,
O=C(NCC1CCCN(Cc2ccc3c(c2)OCCO3)C1)c1ccc2c(c1)OCO2 (stereo not given),-0.9,2,/,/,/,
O=C(NCc1ccccc1Cl)C(=O)NCC(c1ccco1)N1CCOCC1 (stereo not given),4.8,-6,-2,4%,/,
COc1cc(C(=O)N(C)CC2CCN(CCc3cccc(C(F)(F)F)c3)CC2)ccc1C,1.3,-2,/,/,/,
Cc1[nH]n(-c2ccc([N+](=O)[O-])cc2)c(=O)c1C=NCCN1CCN(C(=O)C(C)C)CC1,0.2,4,6,-2%,/,
Cc1cccc(NS(=O)(=O)c2ccc(C)c(C(N)=O)c2)c1,-3.4,-4,4,-2%,/,
O=C(c1ccc2nc[nH]c2c1)N1CCN(S(=O)(=O)c2cccc(F)c2)CC1,-0.5,-6,/,/,/,
CCN(CC)C(=O)CSc1nnc(COc2ccc(OC)cc2)n1N,-4.4,-1,4,2%,/,
Cc1cccc(NC(=O)Cc2ccc(Br)cc2)n1,1.4,8,/,/,/,
O=S(=O)(Cc1ccccc1)N1CCn2c(nc3ccccc32)C1,-3.9,-1,6,2%,-50,Arbovirus inh repeat=2
O=C(CNC(=O)c1ccccc1Br)N/N=C/c1cccnc1,-0.7,0,/,/,/,
COc1ccc(Cl)cc1NC(=S)NCCc1ccc(F)cc1,8.2,-2,/,/,/,
Cc1ccccc1OCc1nc(-c2ccccc2)no1,10,-12,-1,5%,-25,
CCn1c(O)c(N=NC(=O)CNC(=O)c2ccccc2F)c2ccccc21,1.9,-7,/,/,/,
C=CCc1ccccc1OCC(O)CN1CCN(Cc2ccc3c(c2)OCO3)CC1 (stereo not given),0.0&0.3,0&-3,-8&-14,6%,8,
O=C(CN1CCOCC1)N/N=C/c1ccccc1,-1.0,-8,9,11%,/,
CCOc1ccc(S(=O)(=O)N(C)c2ccc(OCC(=O)Nc3nc(-c4cc(OC)ccc4OC)cs3)cc2)cc1,1.1,5,12,3%,-24,
COCC(=O)Nc1nnc(SCC(=O)NCc2cccs2)s1,-1.3,-4,5,-3%,-22,
CCCCc1ccc(NC(=S)NCc2ccccc2OC)cc1,4.2,-4,13,-3%,/,
CCNC(=S)N1CCN(C(c2ccccc2)c2ccccc2)CC1,1.1,5,10,-6%,-27,
CCOc1ccc(N=Nc2c(N)[nH][nH]c2=O)cc1,54*,57,-2,3%,-9,
Cc1cc(C(=O)N/N=C/c2c(C)[nH]c3ccccc23)n[nH]1,0.6,5,/,/,/,
CCC(=O)Nc1cccc(C2=NOC3(C2)C[C@@H](C(N)=O)N(C(=O)C(c2ccccc2)c2ccccc2)C3)c1 (stereo not given in full),1.8,2,/,8%,/,
CCOC(=O)CSc1n[nH]c(NC(=O)NC(C)C)n1,-1.7,3,5,1%,/,
COc1cccc(NC(=O)CCCCCN2C(=O)[C@@H]3Cc4ccccc4CN3C2=O)c1,2.6,-1,/,/,/,
Cc1cc(C)c(CN2CCC(CO)(CCOc3ccccc3)CC2)cc1C,2.1,5,-13,9%,/,
CC1(C)CC(=O)C=C(NCCc2ccccc2)C1,-1.3,3,/,/,/,
COc1ccc(S(=O)(=O)Nc2cccc(-c3ccc4nncn4n3)c2)cc1F,-1.6,4,-3,6%,/,
COc1cccc(/C=C(\C)C(=O)c2c(C)cc(C)[nH]c2=O)c1OC,-3.0,-1,/,/,/,
O=c1nc(/C=C/c2ccccc2C(F)(F)F)cc(C(F)(F)F)[nH]1,2.8,8,/,/,/,
CN1C(=O)[C@H]2[C@@H](/C=C/c3ccccc3)N3C(=O)CN(Cc4ccccc4)C(=O)[C@@]3(C)[C@H]2C1=O,-0.1,-7,/,/,/,
Cc1cccc(NC(=O)[C@@H](NC(=O)N2C[C@H]3C[C@@H](C2)c2cccc(=O)n2C3)C(C)C)c1,2.1,-7,/,/,/,
COc1ccc(Br)cc1/C=N/n1c(-c2ccccc2)n[nH]c1=S,1.3,2,/,/,/,
Cc1c(NC(=S)N2CCN(c3cccc(Cl)c3)CC2)c(=O)n(-c2ccccc2)n1C,1.3,-5,3,6%,/,
COc1ccc(S(=O)(=O)N2CCCCCC2)cc1C(=O)OCC(=O)NCC(C)C,/,-3,17,-1%,2,
CN(CC(=O)Nc1ccc(S(=O)(=O)N2CCCC2)cc1)Cc1ccc(Cl)cc1Cl,12,-1,-18,7%,-10,
CCOC(=O)c1[nH]cnc1C(=O)Nc1ccc([N+](=O)[O-])cc1,-5.6,12,/,/,/,
O=C(COC(=O)c1sc2cc(Cl)ccc2c1Cl)Nc1ncc(Cl)cc1Cl,0.1,16,-1,45%,/,
O=C(CSc1nc2c(sc3ccccc32)c(=O)n1CCCN1CCCC1)NCC1CCCO1 (stereo not given),1.7,4,10,-8%,8,
Cc1cc(C)n2c(SCC(=O)N3CCN(S(=O)(=O)c4ccc(Cl)cc4)CC3)nnc2n1,-1.1,-5,3,-2%,-32,
CNC(=S)NNC(=O)Cc1ccc(O)cc1,0.4,-4,-9,4%,-10,
COc1cccc(C2(O)CC(C(F)(F)F)=NN2C(=O)c2ccccn2)c1 (stereo not given),-0.3,2,-9,-3%,/,
COc1ccc(Nc2nc(C(=O)N(CCO)Cc3ccccc3)cs2)cc1,5.1,0,-4,-3%,/,
O=C(CCN1C(=O)c2ccccc2C1=O)N1CCN(Cc2ccc(Cl)cc2Cl)CC1,2.8,-1,4,-3%,-27,Arbovirus inh repeat=1
COc1cc2c(cc1OC)-c1c(OC)c(OC)cc3c1[C@H](C2)[N+](C)(C)CC3,1.1,-1,1,-6%,-36,
O=C(CN1C(=O)COc2ccccc21)NCCN1CCc2ccccc2C1,0.2,11,5,-6%,8,
CC1=C2C(=O)OC(c3ccoc3)C2(C)CCC1 (stereo not given),-1.7,-5,2,8%,-29,
C/C(N)=C(/C#N)C(=O)CN1C(=O)NC(Cc2c[nH]c3ccccc23)C1=O (stereo not given),5.0,-4,/,/,/,
COC(=O)C1(C)NC(c2ccc(O)cc2)C2C(=O)N(c3ccc(F)cc3)C(=O)C21 (stereo not given),-2.0,-17,/,/,/,
O=C(NCCCn1ccnc1)c1cn(-c2ccccc2)nc1-c1ccc(F)cc1,1.9,5,4,4%,-49,
O=C(C1CCN(CC2CC=CCC2)CC1)N(CCc1ccccc1)Cc1ccccc1 (stereo not given),4.4,0,-15,-1%,-8,
COc1ccc(S(=O)(=O)N2CCCOC2CNC(=O)C(=O)NCCCn2ccnc2)cc1 (stereo not given),-2.6,1,5,-2%,/,
Cn1c(=O)oc2cc(S(=O)(=O)N3CCCC(C(=O)NCC4COc5ccccc5O4)C3)ccc21 (stereo not given),-2.2,-3,5,/,-33,Arbovirus inh repeat=7
CC(C)(C)Nc1scc(-c2ccccc2)[n+]1-c1ccccc1,0.0,4,-2,2%,/,
O=C(NCCc1ccc(Cl)cc1)C1CCN(C(=O)c2sccc2-n2cccc2)CC1,4.1,-4,7,-3%,-30,
COc1ccc(NC(=O)c2cn(CCC#N)nc2-c2ccc([N+](=O)[O-])cc2)cc1,-1.7,-10,-7,-4%,/,
CCOC(=O)N1CCN(C(=O)C2CC(=O)N(c3ccc(C)cc3)C2)CC1 (stereo not given),-0.2,-5,/,/,/,
O=C(Nc1ccccc1C(=O)N1CCN(CCO)CC1)c1cccc([N+](=O)[O-])c1,-2.1,-8,/,/,/,
CN(C)CCCNC(=O)c1cc(C(=O)Cc2ccccc2)c[nH]1,-1.4,9,1,-1%,/,
# Later entries:
SMILES,RecA splice inh,Mtb bLac sens,Arbovirus inh,Mtb H37Rv,YopH PTP inh,others
N#C/C(=C\c1cn(Cc2ccc(C#N)cc2)c2ccccc12)C(=O)NCc1cccs1,-15,3,3,-3%,-20,
C/C(=C(/NC(=O)c1ccccc1)C(=O)O)c1ccco1,-7.7,0,4,-13%,-31,
CC(=O)Nc1nc(-c2cccs2)cs1,-0.1,-2,-3,-6%,13,
O=c1c2ccccc2nc(SCc2ccccc2Cl)n1Cc1ccccc1,1.1,-8,-7,2%,-50,
O=C(Cn1nc(Cc2cccnc2)c2ccccc2c1=O)Nc1ccc2c(c1)OCO2,0.5,2,-14,-5%,-17,Arbovirus inh repeat=-5
COc1ccc(S(=O)(=O)Nc2ccccc2-c2nc3ccccc3[nH]c2=O)cc1,0.4,-6,/,/,/,
COc1cc(/C=C(\NC(=O)c2ccccc2)C(=O)NC(C(=O)O)c2ccccc2)cc(OC)c1OC (stereo not given),-1.0,-7,/,/,/,
CC1CN(C(=O)CCC(=O)N2CCN(c3cccc(C(F)(F)F)c3)CC2)c2ccccc2O1 (stereo not given),8.0,6,/,/,/,
O=S1(=O)CCC(NC(=S)Nc2ccccc2)C1 (stereo not given),-0.9,-16,/,-11%,/,
Cc1cccc(C)c1NC(=O)C1(C)c2cccc[n+]2CC(=O)N1Cc1cccs1 (stereo not given),-4.1,0,-4,10%,/,
O=C(CSc1nc(C(F)(F)F)cc(=O)[nH]1)NCc1ccc2c(c1)OCO2,1.1,-6,/,/,/,
CCCNC(=S)NNC(=O)c1cc(C2CC2)nc2ccccc12,-4.2,-6,/,/,/,
CCCn1nnnc1SCC(=O)NCc1cccs1,-1.3,2,2,-3%,-19,
CCOc1ccc(-c2ncncc2-c2ccc(OC)cc2)c(O)c1,2.2,15,3,9%,-23,
O=C1CN(C(=O)c2ccccc2[N+](=O)[O-])C(c2ccccc2)c2cc(Br)ccc2N1 (stereo not given),7.0,8,/,/,/,
CC(=O)N(c1ccc2oc(=O)sc2c1)S(=O)(=O)c1ccccc1,-3.5,0,-9,-18%,0,
COC(=O)C1=C(CS(=O)(=O)c2ccc(Cl)cc2)NC(=O)NC1c1ccc(O)c(OC)c1 (stereo not given),-1.2,-3,/,/,/,
Cn1cc(CNCc2ccc(-n3cccn3)cc2)c(-c2ccccc2F)n1,3.7,0,9,-2%,/,
Cc1ccc(CCNC(=O)C2CC(c3ccccc3[N+](=O)[O-])=NO2)cc1 (stereo not given),2.2,-4,4,-1%,-23,
Cn1c(=O)n(CCc2ccccc2)c(=O)c2c1nc1n2CCN1Cc1ccco1,-1.0,?,-8,-1%,6,
CC(C)CN1CCN(Cc2ccc(Oc3ncccn3)cc2)CC1CCO (stereo not given),-2.1,5,/,-13%,/,
COc1ccccc1C(=O)Nc1cccc(SC)c1,2.9,19,-6,-10%,-23,

# Sorted by molar mass (smallest number first): some entries from above
SMILES,RecA splice inh,Mtb bLac sens,Arbovirus inh,Mtb H37Rv,YopH PTP inh,others
Cc1ccc(CCNC(=O)C2CC(c3ccccc3[N+](=O)[O-])=NO2)cc1 (stereo not given),2.2,-4,4,-1%,-23,
Cc1cccc(C)c1NC(=O)C1(C)c2cccc[n+]2CC(=O)N1Cc1cccs1 (stereo not given),-4.1,0,-4,10%,/,
COc1cc(/C=C(\NC(=O)c2ccccc2)C(=O)NC(C(=O)O)c2ccccc2)cc(OC)c1OC (stereo not given),-1.0,-7,/,/,/,

# Among those listed so far, 13 contain an NH in an aromatic ring:
SMILES,RecA splice inh,Mtb bLac sens,Arbovirus inh,Mtb H37Rv,YopH PTP inh,others
Cc1[nH]n(-c2ccc([N+](=O)[O-])cc2)c(=O)c1C=NCCN1CCN(C(=O)C(C)C)CC1,0.2,4,6,-2%,/,
O=C(c1ccc2nc[nH]c2c1)N1CCN(S(=O)(=O)c2cccc(F)c2)CC1,-0.5,-6,/,/,/,
CCOc1ccc(N=Nc2c(N)[nH][nH]c2=O)cc1,54*,57,-2,3%,-9,
Cc1cc(C(=O)N/N=C/c2c(C)[nH]c3ccccc23)n[nH]1,0.6,5,/,/,/,
CCOC(=O)CSc1n[nH]c(NC(=O)NC(C)C)n1,-1.7,3,5,1%,/,
COc1cccc(/C=C(\C)C(=O)c2c(C)cc(C)[nH]c2=O)c1OC,-3.0,-1,/,/,/,
O=c1nc(/C=C/c2ccccc2C(F)(F)F)cc(C(F)(F)F)[nH]1,2.8,8,/,/,/,
COc1ccc(Br)cc1/C=N/n1c(-c2ccccc2)n[nH]c1=S,1.3,2,/,/,/,
CCOC(=O)c1[nH]cnc1C(=O)Nc1ccc([N+](=O)[O-])cc1,-5.6,12,/,/,/,
C/C(N)=C(/C#N)C(=O)CN1C(=O)NC(Cc2c[nH]c3ccccc23)C1=O (stereo not given),5.0,-4,/,/,/,
CN(C)CCCNC(=O)c1cc(C(=O)Cc2ccccc2)c[nH]1,-1.4,9,1,-1%,/,
COc1ccc(S(=O)(=O)Nc2ccccc2-c2nc3ccccc3[nH]c2=O)cc1,0.4,-6,/,/,/,
O=C(CSc1nc(C(F)(F)F)cc(=O)[nH]1)NCc1ccc2c(c1)OCO2,1.1,-6,/,/,/,

# Screening data (PubChem BioAssay)
